Source: PubChem (several laboratories)
BJeLR viability – MLPCN primary cell-based screen for lethality selective to Ras in HRASV12 cells; BJeLR (HRASV12) viability, CellTiter-Glo ATP luminescence, 48 h; reference of the scale not given here; inhibition, % (test concentration not listed); 300,000 tested, 0.17% active; AID 1554, 2009;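 active = replicate mean above 50%; inconclusive = above 50% but judged a plate artefact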;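 also: 50 nL library stock added to about 25 µL; numbers are from one replicate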
Mtb hypoxia rep – PubChem AID 1159583 | fluorescence inhibition, % (test concentration not listed) | 300,000 tested, 0.1% active | M. tuberculosis hypoxia-regulated fluorescent reporter, fluorescence;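 active = 35 to 45% if threefold the growth effect, above 45% if 1.5-fold the growth effect; inactive = the rest, general growth blockers included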;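 also: wells of about 50 µL received 100 nL stock; 0% = vehicle wells and 100% = reference inhibitor wells; whole bacteria with a GFP reporter of the hypoxia response; strong numbers were not always called active; many hits fall short of the cut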
RN4220 kill – growth inhibition of S. aureus RN4220, primary screen, OD600; 330,000 tested, 0.33% active; inhibition, % (test concentration not listed); 16 h;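 active = z-score of -3 or lower and OD600 up to 0.18 on both plates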;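 also: plate controls were untreated cells for no effect and reference antibiotic for full effect; stock transfer was 100 nL into about 80 µL; one replicate is shown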
ugtP null kill – growth inhibition of ugtP-null S. aureus, primary screen, RN4220 ugtP deletion, OD600 | 16 h; some inactives read as strong as hits | 330,000 tested, 0.54% active | growth inhibition, % (concentration not given with the values);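 active = z-score under -3 and OD600 up to 0.15 on both plates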;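 also: plate controls were untreated wells for no effect and antibiotic for full effect; wells of about 80 µL received 100 nL stock; the first replicate is given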
Autofluor counter – counter-screen for toxin protease inhibitors: compound fluorescence. fluorescence intensity (concentration not given with the values). compound autofluorescence counterscreen, microsphere flow cytometry; active compounds read high. 360,000 tested, 3.1% active. AID 624483;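 active = at least 3 SD above the mean of all compounds, about 16000 in these data; inconclusive = too few beads counted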;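 also: 100 nL of 1 mM stock went into each well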
PrP 5UTR inh – inhibition of PrP 5' UTR reporter expression | AID 488862, 2010 | inhibition, % (test concentration not listed) | 340,000 tested, 0.35% active | cell-based PrP 5' UTR mRNA reporter, plate reader;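 active = every replicate at 50% or more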;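 also: 0 = median of the neutral control wells; tested in H4 reporter cells; numbers are from one replicate; inactives centre near -14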
Mtb hypoxia rep growth – also measured in Mtb hypoxia rep; calls as there; growth inhibition, %; measured here: M. tuberculosis growth (absorbance);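 0% = vehicle and 100% = reference antibiotic; read after six days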
Starred values were filed as active, the others as inactive; ? = inconclusive; . = not tested or not shown.

Results follow in this order: Mtb hypoxia rep growth	Autofluor counter	Mtb hypoxia rep	BJeLR viability	RN4220 kill	ugtP null kill	PrP 5UTR inh
CCOc1ccc(NC(=O)CN(C)C(=O)c2cccnc2Sc2ccccc2Cl)cc1OCC
    -3.0	?	7.7	-9.5	1.4	-0.9	-24.0
CN(C(=O)c1cccc(NC(=O)Cc2cccc(NC(=O)C3CCN(C(=O)C4CCCCC4)CC3)c2)c1)C1CCC1
    6.6	3797	-0.5	.	0.5	4.8	-19.6
O=C(C1CCCN(S(=O)(=O)Cc2ccccc2)C1)N1CCc2ccccc21 (stereo not drawn)
    7.6	3007	2.9	7.9	0.9	8.8	-2.5
CC(C)c1nnc(NC(=O)C2CCCN2C(=O)Nc2ccccc2)s1 (stereo not drawn)
    0.6	2989	12.7	-7.8	3.5	-3.2	-15.9
O=C(CSc1nnc(-c2ccc(O)cc2)n1-c1ccccc1)CC(=O)Nc1ccccc1
    4.7	10428	14.7	-7.4	34.7	22.9	-10.9
COc1ccccc1CNC(=O)CCCc1cn(C)c2ccccc12
    -3.9	3684	-13.2	-3.1	-2.3	-3.4	3.2
CN1C(=O)N(C)C(=O)C2(Cc3ccccc3N3CCOCC32)C1=O (stereo not drawn)
    -0.8	4369	3.0	6.3	1.6	-0.4	-18.9
CCn1cnc2cc(NC(=O)c3ccco3)ccc21
    0.5	10654	8.6	-4.3	3.0	2.4	-16.9
O=C(NCCCN1CCCC(O)C1)c1cc(COc2ccc(F)cc2F)on1 (stereo not drawn)
    -8.7	5009	-2.9	-1.7	-2.5	-1.1	-11.0
COc1ccccc1NC(=O)c1ccccc1Nc1ccccc1
    7.6	3887	3.5	0.1	-1.8	69.3	-2.1
O=C(NNC(=O)c1ccc(-c2ccc([N+](=O)[O-])cc2)o1)c1ccncc1
    .	.	.	.	4.4	0.9	.
Cn1c(=N)n(CC(=O)c2ccc(F)cc2)c2ccccc21
    5.1	4010	11.6	16.4	-0.8	12.0	39.8
CCOc1ccc(C=Nn2cnnc2)cc1
    -1.0	.	14.4	.	4.7	1.3	.
CC12CC3CC(C)(C1)CC(C(=O)NC(=S)N1CCOCC1)(C3)C2
    11.9	4351	-1.0	6.8	-0.2	-6.9	-12.9
O=C(Nc1ccccc1C(=O)NCc1ccco1)Nc1cccc2ccccc12
    -0.6	4409	7.4	-3.4	5.3	-5.8	-20.4
c1ccc(-c2nnn(C34CC5CC(CC(C5)C3)C4)n2)cc1
    4.8	6147	11.6	7.3	5.1	7.8	-21.0
Cc1cc2c(=O)n(CC(=O)NCC(=O)Nc3ccc(C(C)C)cc3)cnc2s1
    -9.2	4390	-2.3	1.9	2.0	4.3	2.5
CN(C)N=C1C(=O)N(CN2CCN(c3ccccc3)CC2)c2ccccc21
    4.8	.	2.6	.	2.4	-0.7	.
COc1ccc(NC(=O)CSc2nnc(-c3ccccn3)n2-c2ccccc2)cc1OC
    5.5	20651*	-1.6	-9.9	2.9	-1.5	-4.2
COC(=O)C1C(=O)C(C(=O)/C=C/c2ccccc2)C(=O)CC1(C)C (stereo not drawn)
    7.9	3477	13.9	5.3	6.3	5.3	2.6
COc1cccc(CN(C)CC(=O)Nc2sc3c(c2C#N)CCC3)c1OC
    3.0	4275	-11.1	-12.7	3.3	4.7	-38.7
O=C(c1c(F)cccc1F)N1CCCC(c2nc(-c3cccs3)no2)C1 (stereo not drawn)
    5.6	3680	0.9	-8.3	6.8	17.0	-57.7
Cc1ccc(NC2CCCN(C(=O)c3cccc4nccnc34)C2)cc1C (stereo not drawn)
    0.4	5647	3.9	-9.0	3.6	6.2	-0.3
Nc1n[nH]c(-c2cccc([N+](=O)[O-])c2)n1
    8.7	2015	10.9	-2.3	3.6	1.2	-34.6
N#Cc1ccc(OCC(=O)N2CCN(c3ccc(C(F)(F)F)cn3)CC2)cc1
    5.8	3647	-1.5	.	0.8	-4.4	-8.6
Nc1ccc(C(=O)OC2CCOC2=O)cc1[N+](=O)[O-] (stereo not drawn)
    5.6	2719	5.9	-1.5	1.5	0.0	-22.3
CCOC(=O)NN=Cc1ccc(F)cc1F
    3.1	.	7.7	.	5.2	1.9	.
O=C(c1ccc(Cl)cc1)N1CCn2c1nc1ccccc12
    -0.6	3898	2.0	-3.2	3.8	5.9	-50.8
COc1ccc(-c2nc(-n3c(C)c(C(C)=O)c(C(C)=O)c3C)sc2C)cc1
    4.9	5905	-6.2	-3.3	-1.4	-7.0	-14.8
COc1cc(-c2noc(C3CCCN(C(=O)c4ccccc4)C3)n2)cc(OC)c1OC (stereo not drawn)
    -5.0	3719	-16.8	0.2	-3.5	-2.3	-19.0
COc1ccc(C2Cc3cc(O)cc(O)c3C(=O)O2)cc1O (stereo not drawn)
    8.1	.	-1.0	.	0.7	-21.3	.
Cc1ccc2[nH]c(=O)c(CN(Cc3ccccc3)C(=S)NCCCN(C)C)cc2c1
    10.8	4693	9.1	4.4	4.0	4.3	-16.8
Cc1cc(C)n(CCN(C)C(=O)CCc2nnc(CCC3CCCCC3)o2)n1
    4.1	2262	-8.0	1.8	3.5	2.1	-18.6
CC(=O)c1c(C)oc2ccc(N(C(C)=O)S(=O)(=O)c3ccc(Br)cc3)cc12
    9.2	7242	12.3	6.4	10.7	-5.2	-23.3
C1=C(c2ccccc2)Nc2nnnn2C1c1cccs1 (stereo not drawn)
    .	2504	.	9.1	9.5	1.2	-26.5
Cc1ccc(C)c(OCC(=O)Nc2ccc(C(=O)O)cc2NC(=O)COc2cc(C)ccc2C)c1
    2.4	6281	-6.5	-1.1	7.5	-20.6	-7.8
Nc1nonc1-n1nnc(C(=O)N/N=C/c2ccccc2Cl)c1-c1ccccc1
    .	4359	.	-3.0	.	.	-5.8
CC1(C)CC(=S)Nc2ccccc2S1
    11.7	5119	5.2	-0.6	5.3	-9.0	-19.1
COc1ccc(CCNS(=O)(=O)c2ccc3oc(C(=O)O)c(C)c3c2)cc1OC
    1.0	10847	1.0	1.7	5.4	10.8	-13.4
O=C(Nc1ccc(S(=O)(=O)Nc2ccccn2)cc1)c1ccc(Cl)cc1Cl
    8.1	6032	13.3	15.9	2.0	-4.9	-12.0
O=C(CN1C(=O)NC2(CCCCCC2)C1=O)NCc1ccc(Cl)cc1
    9.1	.	7.9	.	-0.1	1.4	-8.4
COCCCNC(=S)NN=Cc1ccc(OC)cc1
    9.5	.	4.1	.	4.1	-3.3	.
Cc1cc(N2CCCCC2)nc(N)n1
    7.8	2640	-0.9	-12.2	4.7	-2.1	-20.0
CCOc1cc(C2NC(=O)NC(O)(C(F)(F)F)C2C(=O)c2ccc(OC)cc2)ccc1O (stereo not drawn)
    12.1	3114	-4.7	-6.3	0.5	-3.1	-6.6
CCOc1cc(/C=C(\C#N)C(=O)Nc2ccccn2)ccc1O
    -7.8	6311	0.5	-13.4	0.0	2.1	-5.7
COc1cc2c(cc1OC)CN(C(=O)/C=C/c1ccc([N+](=O)[O-])cc1)CC2
    -1.3	3563	1.0	-8.6	6.5	8.1	-20.0
O=C1CCCN1CN(C(=O)c1ccccc1)c1ccc(F)cc1
    -4.2	.	5.1	1.9	1.1	13.4	-24.8
CC(C)(C)C(=O)CN1C(=O)C2(OCCO2)c2ccccc21
    .	3659	.	-4.1	-1.5	3.2	-12.6
CN(C)C=Nc1nonc1N
    .	2795	.	6.1	3.3	2.7	-17.6
O=C(Cn1ncc2c1-c1ccccc1OC2)Nc1nc2ccccc2s1
    0.5	5978	2.8	3.4	6.4	10.8	-10.4
O=C1C=C(c2ccc3c(c2)OCO3)CC(c2ccc(F)cc2)C1 (stereo not drawn)
    8.1	.	5.9	.	2.6	-2.3	.
CC(=O)N1c2ccccc2Nc2ccccc21
    17.9	2307	13.0	10.4	3.1	0.4	-27.4
Nc1cc(N)nc(SCC(=O)Nc2ccc3c(c2)OCO3)n1
    -2.8	4246	-1.3	1.3	3.8	0.7	-19.8
CS(=O)(=O)c1ccc2nc(NC(=O)c3cc(-c4ccccc4)nn3-c3ccccc3)sc2c1
    -2.8	2111	-5.1	3.1	10.3	-8.3	-6.1
O=C(CSc1ccccc1F)NCCCN1CCCC1=O
    -7.4	4601	-3.9	-4.7	-1.3	-1.4	-2.9
COc1cc(NC(=O)Cc2cccs2)ccc1-n1cnnn1
    15.0	3351	8.6	-0.3	-7.1	-3.0	-12.9
O=C(Nc1nnc(SCc2ccccc2F)s1)C1=COCCO1
    0.4	?	2.9	0.5	-1.0	-3.2	-32.7
O=C(CCC(=O)Nc1ccc(F)cc1)NN=Cc1ccc(O)cc1O
    5.5	.	5.0	.	-0.6	1.8	.
CCN(CC)c1ccc(C=Nc2ccc(OC)c(S(=O)(=O)N3CCOCC3)c2)c(O)c1
    0.1	5284	-2.4	.	2.5	6.4	-11.0
c1cncc(C2Nc3cccc4cccc(c34)N2)c1
    3.7	3561	1.3	-5.3	4.5	-1.0	-11.5

Looked up by compound from the entries so far, 4 records:
Results follow in this order: Mtb hypoxia rep growth	Autofluor counter	Mtb hypoxia rep	BJeLR viability	RN4220 kill	ugtP null kill	PrP 5UTR inh
O=C(CSc1ccccc1F)NCCCN1CCCC1=O
    -7.4	4601	-3.9	-4.7	-1.3	-1.4	-2.9
Nc1cc(N)nc(SCC(=O)Nc2ccc3c(c2)OCO3)n1
    -2.8	4246	-1.3	1.3	3.8	0.7	-19.8
COc1cc(NC(=O)Cc2cccs2)ccc1-n1cnnn1
    15.0	3351	8.6	-0.3	-7.1	-3.0	-12.9
c1cncc(C2Nc3cccc4cccc(c34)N2)c1
    3.7	3561	1.3	-5.3	4.5	-1.0	-11.5

The listing continues:
Results follow in this order: Mtb hypoxia rep growth	Autofluor counter	Mtb hypoxia rep	BJeLR viability	RN4220 kill	ugtP null kill	PrP 5UTR inh
CCn1cc(CN2CCC(n3nccc3NC(=O)C(OC)c3ccccc3)CC2)cn1 (stereo not drawn)
    10.3	5358	4.0	-3.4	2.8	4.6	-10.6
COc1ccc(OC)c(-c2csc(CCn3nc(C)cc3C)n2)c1
    3.0	3977	-2.3	.	4.7	0.9	-14.9
CCc1noc(C)c1C(=O)Nc1nnc(CC(C)C)s1
    4.4	5677	10.1	-3.9	3.0	1.6	-15.9
CCCCC1CCC(C(=O)NCC(c2ccco2)N2CCOCC2)CC1 (stereo not drawn)
    .	5540	.	5.9	.	.	-6.4
CCOc1ccc2nc(NC(=O)C3(C)CC3(Br)Br)sc2c1 (stereo not drawn)
    2.1	3937	-2.7	-8.1	-4.7	-16.6	-66.8
O=C(O)CCCc1nc(-c2ccccc2)no1
    2.0	16634*	0.7	4.6	2.1	0.4	0.2
Cc1ccnc(NC(=O)CCC(=O)N(CC(=O)NCc2ccccc2)c2ccc3c(c2)OCO3)c1
    .	4548	.	1.8	1.3	3.8	2.6
CC(C)(C)NS(=O)(=O)c1ccc2[nH]c3c(c2c1)CCCCC3
    2.7	3551	16.6	2.1	3.1	-4.0	-23.0
CCc1ccccc1N1C(=O)[C@@H]2Cc3ccccc3CN2C1=O
    20.2	3888	10.0	0.4	5.0	5.5	-20.2
CC(C)(C)OC(=O)N1CCC(CNC(=O)c2ccc(F)cc2F)CC1
    5.0	6464	15.4	-10.4	4.3	0.8	-47.5
C=CCSc1nc(O)c(C2OC(=O)c3c2ccc(OC)c3OC)c(=O)n1-c1ccccc1 (stereo not drawn)
    -1.7	3998	-4.4	3.4	-4.4	-7.1	-2.1
CC(=O)NN1C(=O)c2ccc3c4c(ccc(c24)C1=O)C(=O)N(NC(C)=O)C3=O
    -20.4	.	1.3	24.4	17.3	14.3	-20.4
COc1ccc(-c2ccc(SCc3ccccn3)nn2)cc1OC
    0.0	4518	15.7	-0.9	5.6	-0.2	6.9
CCOc1ccccc1NC(=O)N1CCCC1C(=O)Nc1ccc(NC(C)=O)cc1 (stereo not drawn)
    .	4640	.	9.2	-3.9	2.4	-4.6
COc1ccc(NC(=O)C2CCCN(c3cnccn3)C2)c(OC)c1 (stereo not drawn)
    4.8	5278	2.9	3.9	1.8	5.8	-16.9
COc1ccccc1N1CCN(Cc2nc(-c3ccc(F)cc3)oc2C)CC1
    .	2487	.	0.1	.	.	-11.0
COC(=O)CC1C(=O)NCCN1C(=O)CSc1nc2ccccc2o1 (stereo not drawn)
    6.2	4245	6.3	3.7	7.8	6.2	-24.9
